# Compound activity: PubChem BioAssay, NMMLSC
# RGS4-Gao reg = modulators of RGS4 binding to Galphao, primary screen, biochemical, multiplexed bead flow cytometry; Guanine nucleotide-binding protein G(o) subunit alpha (Homo sapiens), P09471; 220,000 compounds, 0.33% hits; binding response (% of control), % at 10 µM; actives lie on both sides; AID 1415, 2008; in the data active = binding response below about 49% or above about 150%; inactive = in between;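 note: fluorescent Galphao activated with aluminum fluoride binding bead-coupled RGS4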
# Target sequence (P09471 whole entry, looked up): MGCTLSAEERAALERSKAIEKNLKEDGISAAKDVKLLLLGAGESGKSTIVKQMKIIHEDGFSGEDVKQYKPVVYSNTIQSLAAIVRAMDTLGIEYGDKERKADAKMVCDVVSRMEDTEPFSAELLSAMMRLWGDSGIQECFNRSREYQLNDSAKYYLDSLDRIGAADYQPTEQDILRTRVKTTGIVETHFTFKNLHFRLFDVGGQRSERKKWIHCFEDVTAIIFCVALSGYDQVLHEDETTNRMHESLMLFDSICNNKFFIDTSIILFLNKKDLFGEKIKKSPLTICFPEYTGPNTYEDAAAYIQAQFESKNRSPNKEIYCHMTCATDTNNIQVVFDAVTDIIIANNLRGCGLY
# RGS8-Gao reg = RGS8-Galphao binding modulators, primary screen, biochemical, multiplexed bead flow cytometry | actives lie on both sides | AID 1423, 2008 | 220,000 compounds, 0.34% hits | response (percent of control binding), % at 10 µM | Guanine nucleotide-binding protein G(o) subunit alpha (Homo sapiens), P09471; in the data active = response below about 60% or above about 140%; inactive = in between;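 note: Galphao activated as the GDP aluminium fluoride complex binding bead-coupled RGS8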
# GSH bead fluor = compound fluorescence on glutathione beads, profiling panel, artefact control, biophysical, 488/530 nm, flow cytometry; GSH beads flow cytometry, compound fluorescence 488/530 nm; hits give high values; fluorescence (KMESF) at 10 µM; 190,000 compounds, 0.25% hits; AID 1776, 2009; in the data active = fluorescence above about 89;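 note: glutathione beads carrying GST-tagged Bcl family fusion proteins plus one bare bead set; values are compound well signal with DMSO vehicle wells as background; inactives centre near 16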
# RGS7-Gao reg = RGS7-Galphao binding modulators, primary screen, biochemical, multiplexed bead flow cytometry; Guanine nucleotide-binding protein G(o) subunit alpha (Homo sapiens), P09471; actives lie on both sides; binding response (% of control), % at 10 µM; 220,000 compounds, 0.35% hits; in the data active = binding response below about 49% or above about 150%; inconclusive = no clear call, values can overlap the other calls; inactive = in between;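 note: fluorescent Galphao held in activated GDP-AlF4 state binding bead-coupled RGS7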
# The depositor's hits bear a star; ? = inconclusive; . = not tested or not shown. This is a subset; count on the stated rates, not on these rows.
entry	Compound	RGS4-Gao reg	RGS8-Gao reg
1	COC(=O)C1=NN(c2ccc(Cl)cc2)C2C(=O)N(c3ccccc3OC)C(=O)C12 (stereo unspecified)	107.4	107.9
2	CCOC(=O)N1CCN(C(=S)NC2CCCCC2)CC1	98.2	99.7
3	CCc1ccc2nc(NC(=O)c3ccc4c(=O)[nH]c(CN5CCOCC5)nc4c3)sc2c1	109.4	106.1
4	Cc1sc2nc(CSc3ccccc3)nc(NCCN(C)C)c2c1C	103.9	104.7
5	O=C(Nc1ccccc1)Nc1nnc(-c2cccs2)s1	104.6	100.0
6	CC1=C(C(=O)OCC2CCCO2)C(c2cccc(C(F)(F)F)c2)C2=C(CC(c3ccco3)CC2=O)N1 (stereo unspecified)	91.1	95.5
7	FC(F)(F)c1cc(-c2ccc(Cl)cc2)nc(NCc2cccnc2)n1	99.8	100.5
8	CCn1c2ccccc2c2cc(NC(=O)COC(=O)c3ccccc3O)ccc21	101.3	99.7
9	CCn1c(COc2ccc(C)cc2)nnc1SCC(=O)Nc1ccc(S(N)(=O)=O)cc1	104.4	101.8
10	C=CCSc1nnc2c(n1)[nH]c1c(C)cccc12	100.4	98.5
11	Cc1c(/C=N/NC(=O)c2ccc(O)cc2)c2ccccn2c1C(=O)c1ccc(F)cc1	102.1	102.4
12	Cc1ccc(NC2c3ncccc3C(=O)N2Cc2cccs2)cc1 (stereo unspecified)	101.2	97.9

entry	GSH bead fluor	RGS7-Gao reg
1	8	104.7
2	19	101.4
3	20	104.2
4	5	101.9
5	19	101.3
6	4	90.3
7	12	104.5
8	15	?
9	24	106.7
10	28	96.6
11	2	99.1
12	12	102.2

# Just RGS4-Gao reg, for 3 of the compounds above:
no.	Compound	RGS4-Gao reg
7	FC(F)(F)c1cc(-c2ccc(Cl)cc2)nc(NCc2cccnc2)n1	99.8
8	CCn1c2ccccc2c2cc(NC(=O)COC(=O)c3ccccc3O)ccc21	101.3
9	CCn1c(COc2ccc(C)cc2)nnc1SCC(=O)Nc1ccc(S(N)(=O)=O)cc1	104.4

# Record cards (already shown).
# `CC1=C(C(=O)OCC2CCCO2)C(c2cccc(C(F)(F)F)c2)C2=C(CC(c3ccco3)CC2=O)N1` (stereo unspecified) is listed as RGS4-Gao reg = 91.1; RGS8-Gao reg = 95.5; GSH bead fluor = 4; RGS7-Gao reg = 90.3
# `Cc1ccc(NC2c3ncccc3C(=O)N2Cc2cccs2)cc1` (stereo unspecified) is listed as RGS4-Gao reg = 101.2; RGS8-Gao reg = 97.9; GSH bead fluor = 12; RGS7-Gao reg = 102.2
# `COC(=O)C1=NN(c2ccc(Cl)cc2)C2C(=O)N(c3ccccc3OC)C(=O)C12` (stereo unspecified) is listed as RGS4-Gao reg = 107.4; RGS8-Gao reg = 107.9; GSH bead fluor = 8; RGS7-Gao reg = 104.7

# Next section.
entry	Compound	RGS4-Gao reg	RGS8-Gao reg
13	O=[N+]([O-])c1cccc(-c2ccc(/C=N/n3c(-c4ccccc4)n[nH]c3=S)o2)c1	112.6	121.9
14	CC1(OC(=O)CCc2ccccc2)C(=O)C=C2C=C(c3ccsc3)OC=C2C1=O (stereo unspecified)	93.2	98.9
15	Cc1cc(CSc2ccccc2)ccc1NC(=O)COc1ccccc1C	100.9	99.6
16	O=[N+]([O-])c1cc(-c2n[nH]c(-c3ccccc3)n2)cc([N+](=O)[O-])c1	105.5	101.9
17	COc1ccc(/C=N/Nc2nc(-c3ccc(Cl)cc3)cc(C(F)(F)F)n2)c(OC)c1	86.0	96.3

entry	GSH bead fluor	RGS7-Gao reg
13	13	110.7
14	.	?
15	11	97.9
16	26	103.2
17	6	86.3
